Compound activity as filed in PubChem.
HPGD inh – blocks human HPGD enzyme activity. P15428. purified HPGD, NADH fluorescence kinetic, PGE2 substrate. Potency, µM, for the others: at the highest dose activity change, negative = inhibition, usual class: inhibitors. hit rate 4.3% among 150,000. AID 894; active = well fitted inhibition curve with a large enough effect (not every such curve was filed as active); inconclusive = small, poorly fitted or top-dose-only effect, or another doubt; inactive = no such curve, though single readings can be large or run the other way;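 note: top concentration of the series not given in the record; plate controls included wells without enzyme; inactives centre near -10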
Target sequence (P15428 whole entry, looked up): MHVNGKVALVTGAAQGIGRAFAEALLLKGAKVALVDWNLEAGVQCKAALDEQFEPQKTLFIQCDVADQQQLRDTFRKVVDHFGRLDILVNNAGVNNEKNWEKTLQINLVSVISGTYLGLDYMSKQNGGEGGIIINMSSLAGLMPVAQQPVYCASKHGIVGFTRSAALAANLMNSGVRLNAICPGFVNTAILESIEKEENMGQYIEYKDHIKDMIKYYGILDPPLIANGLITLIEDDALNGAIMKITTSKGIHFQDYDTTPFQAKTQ
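NADH formation kinetics: reaction with 30 uM PGE2 and 1 mM NAD+ (final), 20 nM enzyme, Tris-HCl pH 8 with Tween 20, after 15 min compound preincubation at room temperature. Fluorescence change, last versus first of five reads.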
* = called active by the depositor; u = inconclusive; [ ] = remark or other dose. % is set by controls: 0 for no effect and ±100 for the full control effect; potency is the fitted concentration of half-maximal effect.

HPGD inh | smiles
-14% | C/C(N)=C(/C#N)C(=O)CSc1nc(C2CCCCC2)n(-c2ccccc2)n1
-5% | O=C(c1ccccc1)c1cccn1CC(=O)N1CCN(c2ccccc2)CC1
-24% | CCCCCSc1nc2c(c(=O)[nH]c(=O)n2C)n1C(C)C
-13% | CCC(C)(C)n1nnnc1C(c1ccc(C)cc1)N1CCSCC1 (stereo not drawn)
0% | Cc1ccc(CNC(=O)C2CC(=O)OC23CCCC3)c(C)c1 (stereo not drawn)
-22% | Cn1c(COc2nnc(-c3ccc(Cl)cc3)c3ccccc23)nc2ccccc21
-16% | CC(=O)c1c(C)[nH]c(C(=O)NCCc2cccc(C)c2)c1C
-11% | CCCCCCCCCCCCCCSCC(=O)O
-4% | COc1ccc(N/C(N)=N/c2nc(CSc3ccc(Cl)cc3)cc(=O)[nH]2)cc1
-26% | CCOC(=O)Cn1nc(-c2ccccc2)c2cnc3ccc(C)cc3c21
-25% | O=C(CC(Sc1ccccc1)c1cccs1)c1ccco1 (stereo not drawn)
-6% | CCc1cc2c(=O)c(-c3cnn(-c4ccccc4)c3)c(C)oc2cc1OCC(=O)Nc1cccc(C)c1

Reprinted from the part before: 2 compounds; new compounds follow.
HPGD inh | smiles
-25% | O=C(CC(Sc1ccccc1)c1cccs1)c1ccco1 (stereo not drawn)
-6% | CCc1cc2c(=O)c(-c3cnn(-c4ccccc4)c3)c(C)oc2cc1OCC(=O)Nc1cccc(C)c1
-9% | COc1ccccc1NS(=O)(=O)c1cccc(NC(=S)NCCN2CCOCC2)c1
-19% | C=CCn1c(=O)c2ccc(C(=O)NCc3ccccc3)cc2n(Cc2ccccc2Cl)c1=O
-11% | O=C(Nc1ccccc1F)c1cc(S(=O)(=O)N2CCCCC2)cs1
u | CCN(CC)CCN1C(=O)c2ccccc2NC1c1cccc(F)c1 (stereo not drawn)
-10% | CCN(CC)S(=O)(=O)c1ccc2c(c1)c(=O)c(C(=O)N1CCN(c3ccccc3)CC1)cn2C
-18% | c1ccc(COc2ccc(CNn3cnnc3)cc2)cc1
-6% | C=CCn1c(SCc2ccc(C(=O)OC)cc2)nnc1-c1sc(N)nc1C
99%[activator] | Cc1csc2ncc(C(=O)Nc3ccc4c(c3)OCCO4)c(=O)n12
-9% | O=C(c1cnccn1)N1CCN(S(=O)(=O)c2ccc3ccccc3c2)CC1
-5% | Cc1cccc(OCc2nnc(SCC(=O)Nc3ccc(C)c(Cl)c3)o2)c1
u | COc1cc(/C=N/NC(=S)NCCN2CCOCC2)cc(OC)c1OC
0% | O=S(=O)(NCCOc1ccccc1)c1ccc2ccccc2c1

Additional compounds:
HPGD inh | smiles
-9% | O=C(CN1C(=O)/C(=C2\SC(=S)N(C3CCS(=O)(=O)C3)C2=O)c2ccccc21)Nc1ccccc1 (stereo not drawn)
-14% | Cc1ccc(NC(=O)c2cc(NC(=O)c3ccco3)ccc2N2CCOCC2)cc1
-15% | O=C(NCCc1ccccc1)c1oc2ccccc2c1COc1ccccc1
-5% | CC(=O)c1ccc(-n2nnnc2SCC(=O)Nc2cccc(NC(=O)c3ccco3)c2)cc1
-21% | Cc1ccc2oc(=O)c3cc(C(=O)Nc4cc(-c5cccc(F)c5)no4)sc3c2c1
-20% | CCOC(=O)N1CCN(C(=O)CSc2ncnc3ccccc23)CC1
-13% | O=C(O)c1cccc(N/N=C/c2cc(Br)cc(Br)c2O)c1
u | COc1ccc(C2C=C(c3ccc(Br)cc3)Nc3nc(NS(C)(=O)=O)nn32)cc1 (stereo not drawn)
-14% | O=C(NC12CC3CC(CC(C3)C1)C2)N1CCCC(CO)C1 (stereo not drawn)
u | CSc1nc2sc3c(c2c(=O)[nH]1)CCC3
-12% | CS(=O)(=O)N1CCN(C(=O)c2ccc(F)cc2)CC1
-12% | Cc1cccc(OCCNC(=O)c2cc(-n3cnnc3)ccc2Cl)c1

The results go on.
HPGD inh | smiles
-1% | Cc1ccccc1-n1c(SC(C)C(N)=O)nnc1-c1cccnc1 (stereo not drawn)
-9% | COc1cc(C2C(C(=O)c3cccs3)=C(O)C(=O)N2c2cc(C)on2)ccc1O (stereo not drawn)
-14% | CCCn1c(-c2ccc(F)cc2)nc2c(N3CCN(CCC(=O)OCC)CC3)nc(C)nc21
-16% | Cc1nc(N)sc1N=Nc1ccc(F)cc1
-9% | CSc1ccc(S(=O)(=O)Nc2ccc(F)cc2)cc1
-6% | COc1ccccc1-n1cnnc1SCC(=O)N1CCN(S(=O)(=O)c2ccccc2)CC1
-2% | COc1cc2c(cc1OC)[C@H](C)N(CC1C(=O)O[C@@H]3C[C@@]4(C)CCC[C@H](C)[C@@]45OC5[C@H]13)CC2 (stereo partly drawn)
-8% | CCN1CCN(c2nc(Nc3ccccc3)nc(N)c2[N+](=O)[O-])CC1
u | CCCOc1ccc(-c2nc(C#N)c(NCC3CCCO3)o2)cc1 (stereo not drawn)
-5% | O=S(=O)(NCc1ccc2c(c1)OCO2)c1ccc2c(c1)oc1ccccc12
-2% | CCCN1C(=O)c2ccc(C(=O)NC3=NCCS3)cc2C1=O
-12% | CC(c1ccccc1)n1cc(C(=O)NCC2CCCO2)nn1 (stereo not drawn)

The results go on:
HPGD inh | smiles
u | COc1cc2c(cc1NC(=O)COC(=O)C(CCSC)NC(=O)c1ccccc1Cl)oc1ccccc12 (stereo not drawn)
-18% | Cc1ccc2oc(=S)n(C)c2c1
-8% | N#CC1=C(N)Oc2ccc3ccc(O)cc3c2C1c1cccnc1 (stereo not drawn)
-30% | CCCCc1c(O)nc2sccn2c1=O
-18% | O=c1ccnc(SCc2ccccc2Cl)[nH]1
-1% | Nc1ccc(C(O)(C(F)(F)F)C(F)(F)F)cc1
0.79µM* | Cc1ccc(C(=O)N2CCC(C)CC2)cc1C
-12% | Cn1ccnc1SCC(=O)Nc1cccc(C(F)(F)F)c1
-14% | Cc1nnc2c3cnn(-c4ccc(Cl)cc4)c3ncn12
-4% | CCOC(=O)C(O)(CC(=O)c1ccc(OC)cc1)C(F)(F)F (stereo not drawn)
-13% | COc1cccc(C(=O)N2CCN(C(=O)c3cccc4ccccc34)CC2)c1OC
-13% | Cc1nc2ccc(NC(=O)N3CCN(c4ccccn4)CC3)cc2s1

Additional structures follow.
HPGD inh | smiles
-8% | CC1CCCCN1C(=O)Cc1ccc(F)cc1 (stereo not drawn)
-11% | COC(=O)c1[nH]c2ccc(Br)cc2c1NC(=O)C(C)N1CCN(C2CCCCC2)CC1 (stereo not drawn)
-19% | O=C(c1cccn2c(=O)c3cc(Br)ccc3nc12)N1CCN(c2ccccn2)CC1
-10% | CCN1C(=O)CC(N2CCN(c3ccc(OC)cc3)CC2)C1=O (stereo not drawn)
u | Cc1cccc(NC(=O)c2cc(-c3ccc(C)s3)nc3ccccc23)n1
-24% | O=C(NNC(=O)c1cc2cc3ccccc3nc2s1)c1cccc(Cl)c1
-8% | CCS(=O)(=O)c1ccc2c(c1)N(S(C)(=O)=O)CC(C(=O)NCCOC)O2 (stereo not drawn)
u | NCCOc1ccccc1Cc1ccccc1
-2% | O=C(O)C1CCN(S(=O)(=O)/C=C/c2ccccc2)CC1
-4% | CN(c1ccc(OCC(=O)OCC(=O)Nc2ccccc2F)cc1)S(=O)(=O)c1cccs1
-5% | COC(=O)c1ccc(-n2c(C)cc(-c3csc(NC(=O)c4ccc(S(=O)(=O)N(C)C)cc4)n3)c2C)cc1
-12% | COC(=O)c1c(C)[nH]c(C(=O)/C=C/c2ccccc2)c1C

Next section:
HPGD inh | smiles
-6% | Cc1c(C(=O)NC(=S)NCC(C)C)oc2ccccc12
-7% | CCCCCCCC1=CC2=C(Cl)C(=O)C(C)(OC(C)=O)C(=O)C2=CN1C (stereo not drawn)
-1% | COc1ccc(C(C)=O)cc1CSc1nc2ccccc2c(=O)n1-c1cccc(C)c1
1% | CCOC(=O)c1cnc2c(C(F)(F)F)cccc2c1N1CCOCC1
-19% | C=CCn1c(SCC(=O)c2cc(C)n(C(C)COC)c2C)nc2sc(C)c(C)c2c1=O (stereo not drawn)
-7% | CC(C)C1=NN2C(=N)CC(=O)N=C2S1
-14% | O=C(Nc1ccccc1F)c1ccncc1
-2% | O=C(O)c1ccc(/C=N/NC(=O)c2ccc(Br)cc2)cc1
u | Cc1ccc(-n2c(=O)c3sccc3n(Cc3cc(=O)n4ccccc4n3)c2=O)cc1
-14% | COc1ccc(C(=O)N2CCC[C@@]3(CCN(c4ncccn4)C3)C2)cc1
-2% | COc1ccc(C(=O)COC(=O)CCn2nnc(-c3cccc(O)c3OC)n2)cc1
-11% | CC(O)COc1ccc(/C(=N/O)c2ccccc2)cc1 (stereo not drawn)

Remaining list, next part.
HPGD inh | smiles
4.5µM* | CN1C(=O)/C(=C/c2ccccc2OCc2cccc(F)c2)NC1=S
-1% | CSC1=NCCN1C(=O)Cc1ccc(Cl)cc1
u | CC1(C)Cc2c(C#N)c(SCC(=O)c3ccccc3)nc(N3CCOCC3)c2CO1
1% | Cn1c(CCNC(=O)c2ccccc2F)nnc1SCc1nc2ccccc2c(=O)[nH]1
-18% | COc1ccc2cc(CN(C(=O)Nc3ccccc3OC)C3CCCC3)c(=O)[nH]c2c1
-12% | CCCCn1nnc(NC(=O)Cc2ccc(Cl)cc2)n1
-10% | CCN(CC)S(=O)(=O)c1ccc(C(=O)Nc2ccc3c(c2)OCCO3)cc1
-8% | CCCCOc1ccc(S(N)(=O)=O)cc1
-20% | CC1=CC(C)(C)Nc2ccc(OC(=O)CN3C(=O)CCC3=O)cc21
-15% | CC(=O)Nc1nc(N2C(=O)c3ccccc3C2=O)n(-c2ccccc2)n1
-3% | Cc1ccc([N+](=O)[O-])cc1/C=N/Nc1nnnn1-c1ccccc1
-10% | CC(C)NC(=O)COC(=O)/C=C/c1ccc(F)cc1

(cont.)
HPGD inh | smiles
-15% | NS(=O)(=O)c1ccc(NC(=S)N2CCN(S(=O)(=O)c3ccc(F)cc3)CC2)cc1
28µM* | COc1ccc(S(=O)(=O)NCCSCc2ccccc2C)cc1Br
-10% | Cc1ccc(C(=O)COC(=O)CNS(=O)(=O)c2ccccc2)cc1[N+](=O)[O-]
-10% | CC(=O)c1c(C)c2c(n1CCN(C)C)CCCC2
u | Cc1cc(N)n2nc(-c3ccc(C(C)(C)C)cc3)cc2n1
-14% | COc1ccccc1NC(=O)Oc1ccc(C(C)=O)cc1
u | CCCc1nc2sc3c(SCC(=O)NCc4ccco4)ncnc3c2c2c1CCC2
-4% | CC(C)N1CC(C(=O)O)CC1=O (stereo not drawn)
-24% | Cc1ccc(C)n1-c1ncn[nH]1
2% | Cc1csc2nc(CNS(=O)(=O)c3ccc4c(c3)CCCC4)cn12
-12% | Cc1ccccc1OCC(=O)N/N=C/c1ccco1
-8% | O=c1[nH]c(=O)n([C@@H]2C[C@H](O)[C@H](CO)O2)cc1I

Later entries
HPGD inh | smiles
-6% | NCCSCCc1ccccc1
-18% | C/C(=N\OCC(=O)N/N=C/c1ccccc1O)c1cccs1
-8% | CCCc1nnc(SCC(=O)N2CCCCC2C)n1CCCOC (stereo not drawn)
u | CCOC(=O)c1sc2nc(NC(=O)C3CCCCC3)sc2c1C
u | CC(=O)N1CCN(C(=O)CC2OC(=O)c3ccccc32)CC1 (stereo not drawn)
-4% | CCOCCCNC(=S)NNC(=O)CCn1nc(C)c(Br)c1C
u | Cc1cccc(NS(=O)(=O)c2ccccc2)n1
u | CC1(C)Cc2nc3sc4c(=O)n(CC(=O)NCc5ccccc5)cnc4c3cc2CO1
-10% | CCNC(=O)NC(=O)C(C)Sc1nc2ccccc2n1CC(C)C (stereo not drawn)
-26% | COc1cc(/C=C/C(=O)OCC(=O)NCc2ccco2)cc(OC)c1OC
-4% | CCOc1ccc(-c2ccc(SCC(=O)N3CCN(c4ccccc4)CC3)nn2)cc1
u | CCC1CCCCN1C(=O)c1cc2cc(Br)ccc2oc1=O (stereo not drawn)

Gathered by group: the entries above containing an NH in an aromatic ring (eleven)
HPGD inh | smiles
-24% | CCCCCSc1nc2c(c(=O)[nH]c(=O)n2C)n1C(C)C
-16% | CC(=O)c1c(C)[nH]c(C(=O)NCCc2cccc(C)c2)c1C
-4% | COc1ccc(N/C(N)=N/c2nc(CSc3ccc(Cl)cc3)cc(=O)[nH]2)cc1
u | CSc1nc2sc3c(c2c(=O)[nH]1)CCC3
-18% | O=c1ccnc(SCc2ccccc2Cl)[nH]1
-11% | COC(=O)c1[nH]c2ccc(Br)cc2c1NC(=O)C(C)N1CCN(C2CCCCC2)CC1 (stereo not drawn)
-12% | COC(=O)c1c(C)[nH]c(C(=O)/C=C/c2ccccc2)c1C
1% | Cn1c(CCNC(=O)c2ccccc2F)nnc1SCc1nc2ccccc2c(=O)[nH]1
-18% | COc1ccc2cc(CN(C(=O)Nc3ccccc3OC)C3CCCC3)c(=O)[nH]c2c1
-24% | Cc1ccc(C)n1-c1ncn[nH]1
-8% | O=c1[nH]c(=O)n([C@@H]2C[C@H](O)[C@H](CO)O2)cc1I

Some of these compounds in order of their number in HPGD inh, smallest number first:
| molecule | HPGD inh |
| --- | --- |
| Cc1ccc(C(=O)N2CCC(C)CC2)cc1C | 0.79µM* |
| CN1C(=O)/C(=C/c2ccccc2OCc2cccc(F)c2)NC1=S | 4.5µM* |
| COc1ccc(S(=O)(=O)NCCSCc2ccccc2C)cc1Br | 28µM* |

Other results.
HPGD inh | smiles
-16% | c1ccc(Sc2ncnc3c2oc2ccccc23)nc1
-14% | CCOC(=O)C1CCCN(c2c(Nc3cccc(C)c3)c(=O)c2=O)C1 (stereo not drawn)
u | CC1=C(C(=O)OCC(C)C)C(c2cccc(F)c2)N2C(=O)C(C)SC2=N1 (stereo not drawn)
-11% | O=C(NCCN1CCOCC1)[C@H](Cc1ccccc1)N1C(=O)c2ccccc2C1=O

A portion of the library, so the mix of outcomes need not match the whole.
